Rango release inh: qHTS Assay for Inhibitors of RanGTP induced Rango (Ran-regulated importin-beta cargo) - Importin beta complex dissociation; Snurportin-1 (Homo sapiens) + GTP-binding nuclear protein Ran (Homo sapiens) + Importin …; Biochemical FRET Rango-importin beta, RanGTP-induced dissociation; Potency, µM (doses to about 46.1 µM), for inactives: top-dose activity change, negative = inhibition; 340,000 compounds, 0.071% hits; AID 540253, 2011; active means falling FRET ratio curve, often poorly fitted, with flat reads before Ran was added; inconclusive means other falling curves, or compound fluorescence or quenching; inactive means flat or rising ratio curve;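 note: potency is the fitted concentration of half-maximal effect; % of control where 0% means no effect; nearly all actives have a fitted effect of over 45% in size; -100% = wells without RanGTP and RCC1; the record marks most hits as doubtful in a second field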
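Rango/importin beta premix (0.1/0.25 uM final), PBS + 1 mM DTT + 0.02% Tween-20 + 0.1% BSA; cpd 5 min RT; FRET pre-read; + RanGTP-RCC1 (0.6 uM Ran, 2 mM GTP, 0.2 uM RCC1); 45 min RT; FRET post-read, ex 430, em 486/530 nm.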
GLA inh pH 4.5: qHTS Assay for Inhibitors of Human alpha-Galactosidase at pH 4.5. Alpha-galactosidase A (Homo sapiens), P06280. purified enzyme, 4-MU-alpha-Gal fluorescence, pH 4.5. activity change, negative = inhibition, % at 105 µM. 230,000 tested, under 10 active; inconclusive = small, poorly fitted or top-dose-only inhibition, or a rising curve; inactive = flat fitted curve, though single readings scatter; no compound was filed as active;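 note: 0% = full activity with enzyme and -100% = basal without enzyme; dose as in the result columns while the protocol names 77 µM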
Target sequence (P06280 whole entry, looked up): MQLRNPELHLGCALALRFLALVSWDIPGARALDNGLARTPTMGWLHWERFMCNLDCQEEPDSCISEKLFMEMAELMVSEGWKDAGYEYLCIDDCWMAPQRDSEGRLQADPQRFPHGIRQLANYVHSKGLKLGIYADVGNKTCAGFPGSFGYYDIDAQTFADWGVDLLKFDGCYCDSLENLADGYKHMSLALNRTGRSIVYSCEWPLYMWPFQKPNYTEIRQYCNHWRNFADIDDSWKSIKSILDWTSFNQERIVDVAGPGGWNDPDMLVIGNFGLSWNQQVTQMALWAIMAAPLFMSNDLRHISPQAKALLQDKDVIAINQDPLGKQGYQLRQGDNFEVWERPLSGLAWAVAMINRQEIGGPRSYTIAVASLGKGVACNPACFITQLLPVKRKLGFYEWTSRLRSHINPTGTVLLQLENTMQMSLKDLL
Rango-impB inh: qHTS Assay for Inhibitors of Rango (Ran-regulated importin-beta cargo) - Importin beta complex formation. Rango CFP/YFP FRET sensor + importin beta, 45 min. Potency, µM (highest dose often 92.2 µM), without a hit: at the top dose inhibition of complex formation. Importin subunit beta-1 (Homo sapiens), Q14974. 340,000 compounds, 0.031% hits; active = rising FRET ratio curve, often small or poorly fitted; inconclusive = mostly compound fluorescence or quenching in the first reads; inactive = flat curves in all reads;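 note: potency is the fitted concentration of half-maximal effect; 0% = DMSO wells and 100% = buffer wells lacking importin beta; nearly all actives have a fitted effect of over 15% in size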
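FRET biosensor Rango (snurportin 1 IBB between N-terminal EYFP and C-terminal Cerulean), 50 nM in PBS/1 mM DTT/0.02% Tween-20/0.1% BSA, preincubated 5 min RT with compound; 0.125 microM importin beta added, 45 min RT, CFP/YFP FRET ratio read.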
miR-21 reporter: qHTS Assay for Modulators of miRNAs and/orActivators of miR-21. HeLa miR-21 FLuc reporter, luciferase, 48 h. Potency, µM (titrated, usually from 38.3 µM), inactives show at the top dose reporter change, positive = more light. 340,000 tested, under 10 active; active = well fitted rising curve with a large enough effect; inconclusive = small, poorly fitted or top-dose-only effect; inactive = no such curve, though single readings can be large or run the other way;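 note: % of control where 0% means no effect; miR-21 action dims this reporter so a rising signal means less miR-21 action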
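Compounds were titrated across several concentrations (up to approximately 40 uM) and incubated 48 hours with HeLa miR-21-FLuc reporter cells (miR-21 target sequence downstream of FLuc, endogenous miR-21). Readout was firefly luciferase luminescence after lytic detection reagent.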
* hit, by the source's call; ? = inconclusive; nt = no result given; [ ] = remark or other dose. This is a subset, so the mix of outcomes need not match the whole.

Key to letters: A = Rango release inh; B = GLA inh pH 4.5; C = Rango-impB inh; D = miR-21 reporter
> Cc1cccc(/C=N/NC(=O)c2cccc(NC(=O)c3ccccc3)c2)n1
  A = -4.0%	B = nt	C = 1.6%	D = -17.3%
> CN(CCCN1CCOCC1)C(=O)c1cc(COc2c(F)cccc2F)on1
  A = -2.3%	B = nt	C = -3.2%	D = -1.0%
> Cc1ccc(Cn2cccc2C2=NC(C)CO2)cc1 (stereo unspecified)
  A = 11.8%	B = -1.0	C = -0.5%	D = -1.6%
> CCn1c(SCC(N)=O)nnc1-c1ccc2[nH]c(C)c(C)c2c1
  A = -14.7%	B = -0.5	C = ?	D = -11.7%
> COc1ccc(Br)cc1Cn1nnc(C(=O)Nc2ccc3c(c2)OCCO3)c1N
  A = -1.4%	B = nt	C = 3.0%	D = 15.7%
> O=C(CNC(=O)c1cccs1)N/N=C/c1c[nH]c2ccccc12
  A = 18.5%	B = 5.3	C = 0.0%	D = 3.6%
> COc1ccccc1-c1c(C)c(C)nc(N)c1C#N
  A = 17.1%	B = 4.3	C = 1.9%	D = -13.6%
> CC(=O)Oc1c2occc2cc2ccc(=O)oc12
  A = -18.2%	B = nt	C = -2.1%	D = -14.1%
> C=CCSC1=NN2CCS(=O)(=O)N=C2S1
  A = -5.2%	B = -10.1	C = 0.0%	D = -3.3%
> Cc1oc(-c2ccccc2F)nc1CS(=O)(=O)CC(=O)NCCCN1CCN(C)CC1
  A = ?	B = nt	C = -0.2%	D = -0.7%
> COCCN(CC(=O)Nc1cccc(C)c1C)C(=O)Cc1cccs1
  A = -8.8%	B = nt	C = 0.7%	D = nt
> Cc1ccc(Cl)cc1Nc1nc(-c2sc(NC(=O)c3ccccc3)nc2C)cs1
  A = nt	B = -24.8	C = nt	D = 1.3%
> C=CCO/N=C(/C)c1c(O)c(CC)c(-c2ccccc2)n(-c2ccccc2)c1=O
  A = -7.2%	B = -12.5	C = -5.5%	D = -0.7%
> CC1(c2ccccc2)NC(=S)N2C1NC(=S)N2c1ccccc1 (stereo unspecified)
  A = -8.4%	B = 6.1	C = 0.4%	D = -8.0%
> CCC(C(=O)NC1CCCC1)N(C(=O)c1snc(C(N)=O)c1N)c1ccc(C)cc1C (stereo unspecified)
  A = -3.7%	B = nt	C = ?	D = 5.1%
> Cc1[nH]nc(Nc2ccccc2)c1[N+](=O)[O-]
  A = 19.8%	B = -0.6	C = 3.4%	D = -38.0%
> CNC(=O)CN(c1ccc(Oc2ccccc2)cc1)S(=O)(=O)c1ccc(C)cc1
  A = -10.1%	B = nt	C = -1.4%	D = -3.4%
> CC(C)[C@H](NC(=O)N1c2ccccc2NC(=O)[C@@H]1C(C)C)C(=O)N[C@H](C(=O)O)c1ccccc1
  A = 2.8%	B = nt	C = -0.6%	D = -3.3%
> COC(=O)CSc1nc2sc(C)c(C)c2c(=O)n1C
  A = 2.3%	B = 7.5	C = -0.1%	D = -3.5%
> CCOC(=O)c1cc(NC(=O)COc2ccc([N+](=O)[O-])cc2)cc(C(=O)OCC)c1
  A = 2.9%	B = -7.4	C = -1.7%	D = 0.5%
> COc1ccc(CNc2ncnc3cc(Cl)ccc23)cc1
  A = 10.4%	B = -5.6	C = 0.1%	D = 10.7%
> CSc1ccc(Cl)c(C(=O)OCC(=O)N2CCNC2=O)c1
  A = 48.2%	B = nt	C = -2.2%	D = nt
> C=CCn1c(COc2cccc(C)c2)nnc1SCC(=O)c1c(N)n(C)c(=O)n(C)c1=O
  A = -0.4%	B = nt	C = -1.9%	D = nt
> O=C(NCCc1ccncc1)Nc1ccccc1
  A = -9.6%	B = -2.7	C = 0.6%	D = -2.4%
> Nc1nc(CN2CCN(Cc3ccccc3)CC2)nc(Nc2ccccc2)n1
  A = 9.3%	B = 0.4	C = 4.2%	D = 0.6%

In a second layout: results already given
| Molecule | Rango release inh | GLA inh pH 4.5 | Rango-impB inh | miR-21 reporter |
| --- | --- | --- | --- | --- |
| CNC(=O)CN(c1ccc(Oc2ccccc2)cc1)S(=O)(=O)c1ccc(C)cc1 | -10.1% | nt | -1.4% | -3.4% |
| CC(C)[C@H](NC(=O)N1c2ccccc2NC(=O)[C@@H]1C(C)C)C(=O)N[C@H](C(=O)O)c1ccccc1 | 2.8% | nt | -0.6% | -3.3% |
| COC(=O)CSc1nc2sc(C)c(C)c2c(=O)n1C | 2.3% | 7.5 | -0.1% | -3.5% |

Some of the entries above in a different format:
Below each compound – Rango release inh | GLA inh pH 4.5 | Rango-impB inh | miR-21 reporter
> CSc1ccc(Cl)c(C(=O)OCC(=O)N2CCNC2=O)c1
    48.2% | nt | -2.2% | nt
> CN(CCCN1CCOCC1)C(=O)c1cc(COc2c(F)cccc2F)on1
    -2.3% | nt | -3.2% | -1.0%
> C=CCSC1=NN2CCS(=O)(=O)N=C2S1
    -5.2% | -10.1 | 0.0% | -3.3%

Remaining list, next part:
Key to letters: A = Rango release inh; B = GLA inh pH 4.5; C = Rango-impB inh; D = miR-21 reporter
> O=c1c2oc3ccccc3c2[nH]c(=S)n1-c1ccc(F)cc1
  A = -2.8%	B = 6.0	C = -1.9%	D = -2.4%
> CCCNCc1cc(OC)c(OCc2ccccc2)cc1Br
  A = 11.5%	B = -9.4	C = 0.8%	D = -21.2%
> Cc1nn(Cc2ccccc2Cl)c(Cl)c1/C=C/C(=O)OCC(=O)NC(N)=O
  A = 0.5%	B = -3.5	C = -4.4%	D = -2.1%
> O=C(c1ccccc1)N1CC(COc2ccccc2)OC(c2cccnc2)O1 (stereo unspecified)
  A = 7.6%	B = -8.8	C = 0.4%	D = -8.4%
> O=C(Nc1nc(-c2cccs2)c(C(=O)C(F)(F)F)s1)c1ccccc1
  A = ?	B = -1.9	C = ?	D = 13.7%
> O=C(NCc1ccccn1)Nc1ccc(Br)cc1
  A = 16.0%	B = nt	C = -0.1%	D = -16.9%
> CCOP(=O)(OCC)C(NC(=O)Nc1ccc(Cl)cc1)C(N)=O (stereo unspecified)
  A = -6.3%	B = 0.1	C = 0.0%	D = -8.3%
> COc1ccccc1/C=N/NC(=O)Cn1cnc([N+](=O)[O-])n1
  A = -7.9%	B = -7.6	C = 0.0%	D = 2.9%
> CN(C)CCCN(C(=O)CCOc1ccccc1)c1nc2c(F)cccc2s1
  A = 14.5%	B = 3.3	C = 0.4%	D = ?
> Cc1cccc(-c2nnc(SCC(=O)Nc3cc(C)on3)n2C)c1
  A = 0.4%	B = nt	C = 0.1%	D = 2.8%
> Cc1ccc(-c2cc(C(F)F)nc3sc4c(=O)[nH]cnc4c23)cc1
  A = 0.2%	B = nt	C = -1.2%	D = nt
> CCc1ccccc1NC(=O)CCS(=O)(=O)c1ccc2c(c1)CCCN2C(C)=O
  A = -5.5%	B = nt	C = -0.3%	D = 1.4%
> Cc1ccc(C2(C)NC(=O)N(CC(=O)Nc3ccc4[nH]c(=O)[nH]c4c3)C2=O)cc1 (stereo unspecified)
  A = 14.1%	B = 18.1	C = -2.6%	D = 1.7%
> CCOc1ccc(CN2CCN(Cc3nc4c(s3)CCCC4)CC2CCO)cc1 (stereo unspecified)
  A = -10.0%	B = -4.5	C = -0.5%	D = -5.6%
> CCOc1cc2[nH]c(=O)n(CCc3ccc(OC)c(OC)c3)c(=O)c2cc1OCC
  A = 7.7%	B = 1.5	C = 0.9%	D = -2.2%
> CCOC(=O)C1=C(C)Nc2ncnn2C1c1cc(Br)ccc1F (stereo unspecified)
  A = -3.6%	B = 0.6	C = -0.2%	D = -0.1%
> O=C(NCCCN1CCCC1=O)c1ccc2c(c1)NC(=O)C(N1CCOCC1)S2 (stereo unspecified)
  A = 27.8%	B = -5.3	C = 6.8%	D = -1.9%
> Cc1cccc(C(=O)NC(=S)NNC(=O)COc2ccc(Cl)cc2)c1
  A = 4.8%	B = -0.3	C = 0.6%	D = -11.8%
> O=C(Cn1cc(F)c(=O)[nH]c1=O)NCCO
  A = -3.3%	B = -8.2	C = ?	D = -0.2%
> O=C(NCC1CCCN(C(=O)c2cccnc2)C1)c1ccc(-c2ccccc2)cc1 (stereo unspecified)
  A = 10.9%	B = -1.1	C = -4.0%	D = -7.2%
> COCCNC(=O)/C(C#N)=C/c1ccc(SC)cc1
  A = 1.8%	B = 8.3	C = -1.8%	D = 1.8%
> Cn1cnc(C(=O)N2CCN(C(=O)OC(C)(C)C)CC2)c1C(=O)N1CCN(C(=O)OC(C)(C)C)CC1
  A = -8.6%	B = nt	C = 1.4%	D = nt
> O=C(CNC(=O)c1ccccc1)N/N=C/c1ccc([N+](=O)[O-])o1
  A = -7.9%	B = -5.5	C = ?	D = 27.1%
> CCOC(=O)c1cc2c(ccn2C)n1Cc1ccccc1C
  A = -15.0%	B = 2.9	C = 0.5%	D = -1.3%
> O=C(Nc1cnccn1)c1cccc(C(F)(F)F)c1
  A = 1.2%	B = -4.7	C = 0.3%	D = -13.3%

The listing continues:
Key to letters: A = Rango release inh; B = GLA inh pH 4.5; C = Rango-impB inh; D = miR-21 reporter
> COc1ccc(NC(=O)c2ccc3c(SCC(=O)O)c4c(nc3c2)CCCC4)cc1Cl
  A = nt	B = -8.3	C = nt	D = -0.9%
> Brc1cc2c(cc1Br)OCCOCCOCCOCCO2
  A = -10.2%	B = 1.7	C = -1.1%	D = -0.8%
> CCOc1ccc(/C=N/NC(=O)c2cc(-c3ccccc3)nc3ccccc23)cc1O
  A = -7.6%	B = nt	C = ?	D = -0.6%
> Cc1cccc(N2C(=O)CN(Cc3cccs3)C2=S)c1
  A = 1.7%	B = -2.2[21.1 µM]	C = ?	D = 0.0%
> CC(O)Cn1nc([N+](=O)[O-])nc1N (stereo unspecified)
  A = -1.0%	B = -8.6	C = -0.4%	D = 1.1%
> CC(OC(=O)CCc1nc2ccccc2c(=O)[nH]1)C(=O)c1ccc(Br)cc1 (stereo unspecified)
  A = 1.2%	B = -7.0	C = -1.1%	D = -1.9%
> c1ccc(Nc2cc(-c3ccccc3)nc3ncnn23)cc1
  A = -0.3%	B = -1.2	C = -3.8%	D = -26.5%
> CSc1ccccc1NC(=O)CN(C)C(C)C(=O)NC(=O)NC1CCCCC1 (stereo unspecified)
  A = 2.3%	B = nt	C = 0.2%	D = nt
> COc1ccccc1CNC(=O)COC(=O)c1ccco1
  A = 0.7%	B = nt	C = 7.9%	D = nt
> Cc1cccc(OCC(=O)Nc2ccccc2N2CCCCC2)c1
  A = 8.2%	B = -4.8	C = -1.6%	D = 0.3%
> O=C1C(Cl)=C(Nc2ccccc2)C(=O)c2ccccc21
  A = -18.6%	B = -5.8	C = -1.0%	D = -14.3%
> COCCNC(=O)CN(C(=O)CCC(=O)Nc1ccccn1)c1ccccc1OC
  A = -1.6%	B = nt	C = 0.1%	D = 0.9%
> CC(C)C(=O)Nc1cccc(S(=O)(=O)c2cccc(NC(=O)C(C)C)c2)c1
  A = -8.1%	B = 5.0	C = -1.0%	D = 12.2%
> O=C(c1ccc(C(=O)N2CCN(c3ccccc3F)CC2)nc1)N1CCN(c2ccccc2F)CC1
  A = 0.2%	B = 5.3	C = 4.3%	D = 0.3%
> COc1ccc(N2C(=O)N3[C@H](c4ccc(Br)cc4)[C@@H]4C(=O)N(C(C)(C)C)C(=O)[C@@H]4[C@]3(Cc3ccccc3)C2=O)cc1
  A = -1.5%	B = nt	C = 1.2%	D = 1.8%
> Cc1ccc(S(=O)(=O)N2CCN(C(=O)c3ccc4nc[nH]c4c3)CC2)cc1
  A = -16.7%	B = nt	C = -2.5%	D = nt
> CCOC(=O)Nc1ccc2c(c1)N(C(=O)CCN1CCN(CCO)CC1)c1ccccc1S2
  A = 50.8%	B = nt	C = 0.1%	D = nt
> COc1ccccc1N1CCN(C(=O)CCn2c(=O)[nH]c3ccccc3c2=O)CC1
  A = -1.1%	B = 4.3	C = -1.6%	D = 1.8%
> Cc1nn(C)c(C)c1C1C(C#N)=C(N)OC2=C1C(=O)CCC2 (stereo unspecified)
  A = -2.9%	B = -0.2	C = 1.8%	D = -0.7%

Bioassay records as filed in PubChem BioAssay.
